Screens: PubChem BioAssay, National Center for Advancing Translational Sciences (NCATS)
Rango-impB inh: prevents formation of the Rango-importin beta complex. Q14974. Rango CFP/YFP FRET sensor + importin beta, 45 min. Potency, µM (highest dose often 92.2 µM), for the others: top-dose inhibition of complex formation. 340,000 compounds, 0.031% hits. AID 540263; active = rising FRET ratio curve, often small or poorly fitted; inconclusive = mostly compound fluorescence or quenching in the first reads; inactive = flat curves in all reads;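 also: potency is read from the fitted curve at half-maximal effect; 0% = DMSO wells and 100% = buffer wells lacking importin beta; nearly all actives have a fitted effect of over 15% in size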
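FRET biosensor Rango (snurportin 1 IBB between N-terminal EYFP and C-terminal Cerulean), 50 nM in PBS/1 mM DTT/0.02% Tween-20/0.1% BSA, preincubated 5 min RT with compound; 0.125 microM importin beta added, 45 min RT, CFP/YFP FRET ratio read.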
Rango dissoc inh: inhibitors of RanGTP-induced Rango-importin beta complex dissociation; Potency, µM (doses to about 46.1 µM), for the others: at the highest dose activity change, negative = inhibition; Biochemical FRET Rango-importin beta, RanGTP-induced dissociation; 340,000 compounds, 0.071% hits; O95149+P62826; active means falling FRET ratio curve, often poorly fitted, with flat reads before Ran was added; inconclusive means other falling curves, or compound fluorescence or quenching; inactive means flat or rising ratio curve;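 also: potency is read from the fitted curve at half-maximal effect; % of control where 0% means no effect; nearly all actives have a fitted effect of over 45% in size; -100% = wells without RanGTP and RCC1; the record marks most hits as doubtful in a second field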
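Rango (0.1 uM)–importin beta (0.25 uM) complex; RanGTP-RCC1 trigger; 45 min RT; CFP/YFP FRET read.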
miR-21 reporter: raises the signal of a miR-21 reporter | HeLa miR-21 FLuc reporter, luciferase, 48 h | Potency, µM (series often up to 38.3 µM), inactives show top-dose reporter change, positive = more light | 340,000 tested, under 10 active | AID 2288; active = well fitted rising curve with a large enough effect; inconclusive = small, poorly fitted or top-dose-only effect; inactive = no such curve, though single readings can be large or run the other way;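 also: % of control where 0% means no effect; miR-21 action dims this reporter so a rising signal means less miR-21 action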
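Using DMEM plus 10% FBS, HeLa miR-21-FLuc cells are incubated with test compounds (final up to about 40uM) for 48 hours; firefly luciferase signal is then imaged following reagent-mediated lysis.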
GLA inh pH 4.5: alpha-galactosidase A (human) inhibition, pH 4.5. purified enzyme, 4-MU-alpha-Gal fluorescence, pH 4.5. P06280. AID 1467. 230,000 tested, under 10 active. activity change, negative = inhibition, % at 105 µM; inconclusive = small, poorly fitted or top-dose-only inhibition, or a rising curve; inactive = flat fitted curve, though single readings scatter; no compound was filed as active;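 also: 0% = full activity with enzyme and -100% = basal without enzyme; dose as in the result columns while the protocol names 77 µM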
Target sequence (P06280 whole entry, looked up): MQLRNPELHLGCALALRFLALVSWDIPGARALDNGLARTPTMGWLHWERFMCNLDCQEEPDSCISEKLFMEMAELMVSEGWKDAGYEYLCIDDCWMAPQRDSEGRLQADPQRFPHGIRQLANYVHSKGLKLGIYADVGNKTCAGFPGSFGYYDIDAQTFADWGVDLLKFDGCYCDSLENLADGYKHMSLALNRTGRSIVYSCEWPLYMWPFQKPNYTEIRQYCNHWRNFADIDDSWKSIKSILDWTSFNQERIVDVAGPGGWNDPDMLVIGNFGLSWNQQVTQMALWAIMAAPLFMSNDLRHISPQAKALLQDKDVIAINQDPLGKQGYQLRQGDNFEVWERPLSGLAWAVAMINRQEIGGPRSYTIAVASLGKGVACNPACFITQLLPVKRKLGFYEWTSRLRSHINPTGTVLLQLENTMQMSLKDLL
Active calls of the source: *; u = inconclusive; x = not tested or not shown; & = joins results of further samples.

Rango-impB inh | structure | Rango dissoc inh | miR-21 reporter | GLA inh pH 4.5
3.1% | COc1cccc(/C=C2\SC(=O)NC2=O)c1OCc1ccc(C(=O)O)cc1 | -12% | -1% | -1
-2.4% | Cn1c(=O)[nH]c(=O)c2c1nc(SCCO)n2Cc1ccccc1Cl | -6% | -11% | x
0.5% | COc1cccc(C(C)NC(=S)NCc2ccc(F)cc2)c1 (stereo unspecified) | -5% | 6% | x
-4.4% | O=C(O)C(c1ccccc1)N1C(=O)c2cccc3cccc(c23)C1=O (stereo unspecified) | -20% | -4% | x
2.2% | CCN1C(=O)c2cccc3c(S(=O)(=O)NC(Cc4c[nH]c5ccccc45)C(=O)O)ccc1c23 (stereo unspecified) | 2% | -4% | -3
0.4% | O=C1Nc2ccc(Br)cc2C1(O)c1ccccc1 (stereo unspecified) | 25% | 2% | x
-3.8% | COc1ccc(SCCN2CCN(CC(C)C)CCC2=O)cc1 | -9% | 17% | -6
3.4% | Cc1ccccc1OCC(=O)OCC(=O)NCc1ccco1 | -7% | x | x
u | CC(=O)n1c(C=Nc2ccc(Cl)cc2)c(O)c2ccccc21 | u | -18% | -3
0.4% | Cc1cc(NC2C3CC4CC(C3)CC2C4)n2ncnc2n1 (stereo unspecified) | -6% | -41% | 3
-0.8% | CCS(=O)(=O)c1ccc2oc(Nc3ccc(C(C)(C)C)cc3)nc2c1 | 1% | -5% | -8
u | COCCCNCCCOc1ccc(C(C)(C)c2ccccc2)cc1 | 6% | -5% | -5
x | CCOC(=O)COn1c(=O)c(-c2ccc(OC)c(OC)c2)[n+]([O-])c2ccccc21 | x | -7% | -9
0.2% | O=C(NCCCn1ccnc1)c1ccc(-c2cccc(C(F)(F)F)c2)o1 | -9% | x | x
1.9% | Cc1ccccc1CN1C[C@@H]2C[C@@H](c3ccc4nsnc4c3)N3CCC[C@@]23C1=O | 44% | -9% | -12
-2.4% | NC(=O)c1cc(N)ccc1N1CCCC1 | -10% | 0% | 0
-0.5% | O=C(N/N=C/C1CCCCC1)c1ccccc1-n1cccc1 | 0% | x | x
2.8% | COc1ccc(CCNC(=O)C2CCCN(Cc3nc(-c4cccc(Cl)c4)oc3C)C2)cc1OC (stereo unspecified) | 10% | -2% | -1
-1.0% | Cc1cccc(CNS(=O)(=O)c2csc(C(N)=O)c2)c1 | -24% | 7%&4% | x
-3.1% | O=C(c1ccc([N+](=O)[O-])o1)N(Cc1nnc(-c2ccccc2Cl)o1)C1CC1 | 1% | x | x
0.8% | CCC(C)(C)C1CCC2(CC1)NC(=O)N(CC(=O)N(C)CC(=O)Nc1ccccc1C(F)(F)F)C2=O (stereo unspecified) | -11% | -15% | x
1.2% | CCOc1ccc(NC(=O)CN(C)C(=O)c2cc3c(s2)CCCCC3)cc1OCC | -3% | x | x
-0.9% | COc1ccc(S(=O)(=O)N2CC(=O)Nc3ccccc32)cc1F | -19% | -1% | x
-5.7% | CCCCN1CC(COC)Oc2cccc(F)c2S1(=O)=O (stereo unspecified) | 14% | x | x
0.5% | Cc1cc(CNC(=O)COc2ccc(F)cc2Cl)cc(C)c1O | 2% | -44% | 0
3.5% | COC(=O)CSc1snnc1-c1ccc(Cl)cc1Cl | 17% | -2% | 0
0.6% | COc1ccccc1NC(=O)c1nn(-c2ccccc2)ccc1=O | 1% | -10% | -10
-4.5% | CCCc1cc(=O)[nH]c(SCC(=O)N2CCN(S(=O)(=O)c3ccc(C)cc3)C2)n1 | 4% | -10% | 3
-1.3% | Cc1cc(=O)nc2c3ccccc3n(C(C)C(=O)NCCN3CCOCC3)n12 (stereo unspecified) | -4% | 5% | x
1.6% | COC(=O)c1sc2ccccc2c1N | -2% | -37% | u

Compound profiles, as listed above. Order of screens: Rango-impB inh	Rango dissoc inh	miR-21 reporter	GLA inh pH 4.5
`COC(=O)CSc1snnc1-c1ccc(Cl)cc1Cl` reads 3.5%	17%	-2%	0
`CCCc1cc(=O)[nH]c(SCC(=O)N2CCN(S(=O)(=O)c3ccc(C)cc3)C2)n1` reads -4.5%	4%	-10%	3
`COC(=O)c1sc2ccccc2c1N` reads 1.6%	-2%	-37%	u

The list goes on.
Rango-impB inh | structure | Rango dissoc inh | miR-21 reporter | GLA inh pH 4.5
-2.0% | CCN1CCN(C(=O)Cn2nc(C)n3c(cc4c(OC)cccc43)c2=O)CC1 | -4% | -3% | x
6.9% | Cn1c(=O)[nH]c(=O)c2c1nc(N1CCNCC1)n2Cc1cccc2ccccc12 | 0% | -2% | -7
-0.9% | CSc1ccc(C2C(C#N)=C(N)N(c3ccccc3)C3=C2C(=O)CCC3)cc1 (stereo unspecified) | u | -22% | -7
-1.0% | CCCCOc1ccc(Cc2c(COCC)[nH]c(=S)[nH]c2=O)cc1 | 25% | -5% | 3
-2.2% | Cc1noc(C)c1C(=O)Nc1nc2ccc(F)cc2s1 | 10% | x | x
-2.7% | N#Cc1ccsc1NC(=O)CCN1C(=O)C2CCCCC2C1=O (stereo unspecified) | -8% | x | x
0.1% | CCCCNC(=O)CN1CCC2(O)CCCCC2C1c1ccccc1OC (stereo unspecified) | 0% | -12% | 2
-0.9% | COC(=O)c1ccc(CSc2ncnc3ccccc23)o1 | 15% | -16% | 5
-1.8% | CCN(CC)C(=O)C1CCC(CNS(=O)(=O)c2cccc3nsnc23)CC1 (stereo unspecified) | -3% | -2% | x
1.4% | COC(=O)c1cc(NC(=O)C2(S(=O)(=O)c3ccc(C)cc3)CC2)cc(C(=O)OC)c1 | -5% | -7% | 4
-1.0% | CS(=O)(=O)N(CC(=O)Nc1ccccc1Br)Cc1ccccc1 | 5% | 0% | x
0.9% | O=C(NC1=NCCS1)C1CCN(S(=O)(=O)c2ccccc2C(F)(F)F)CC1 | -5% | x | x
1.5% | Cc1cccc(NC(=O)CC(C)(C)C)c1 | 0% | -6% | -5
1.1% | CCC(C(=O)NC1CCCC1)N(C(=O)Cn1nnc(-c2ccc(C)o2)n1)c1ccc(OC)cc1 (stereo unspecified) | -3% | -5% | x
-0.3% | CCOC(=O)N1CCN(CC(=O)Nc2ccc(C)c(Br)c2)CC1 | 6% | -4% | 2

Sorted by value in Rango dissoc inh (low to high): some entries from above.
compound | Rango dissoc inh
N#Cc1ccsc1NC(=O)CCN1C(=O)C2CCCCC2C1=O (stereo unspecified) | -8%
O=C(NC1=NCCS1)C1CCN(S(=O)(=O)c2ccccc2C(F)(F)F)CC1 | -5%
CS(=O)(=O)N(CC(=O)Nc1ccccc1Br)Cc1ccccc1 | 5%

Quoted from the listing.
For Rango-impB inh, CCOC(=O)N1CCN(CC(=O)Nc2ccc(C)c(Br)c2)CC1 reads -0.3%
For Rango-impB inh, CCN(CC)C(=O)C1CCC(CNS(=O)(=O)c2cccc3nsnc23)CC1 (stereo unspecified) reads -1.8%
For GLA inh pH 4.5, Cc1cccc(NC(=O)CC(C)(C)C)c1 reads -5
For Rango dissoc inh, CCC(C(=O)NC1CCCC1)N(C(=O)Cn1nnc(-c2ccc(C)o2)n1)c1ccc(OC)cc1 (stereo unspecified) reads -3%

(next part)
Rango-impB inh | structure | Rango dissoc inh | miR-21 reporter | GLA inh pH 4.5
-1.5% | CCOC(=O)c1ccc2nc(NC(NC(C)=O)(C(=O)OC)C(F)(F)F)sc2c1 (stereo unspecified) | -2% | -6% | 14
3.1% | COc1ccc(N2CC(C)Cn3c2nc2c3c(=O)[nH]c(=O)n2C)cc1 (stereo unspecified) | 5% | -4% | -2
-4.5% | O=C(COc1ccc(C(=S)N2CCOCC2)cc1)N1CCCC1 | 6% | 0% | -5
-4.6% | Cn1c(Cn2c(=O)sc3ccccc32)nnc1SCC(=O)Nc1ccccc1 | -3% | -2% | 0
-0.7% | CC(C)C1Cc2c(sc3c2c(=O)n(Cc2ccccc2)c2nncn32)CO1 (stereo unspecified) | 10% | -5% | -6
-1.9% | CCCn1c(N)c(C(=S)NC(=O)C2CC2)c(=O)n(C)c1=O | -16% | -4% | -2
u | O=C1C(c2ccccc2)=[N+]([O-])c2ccccc21 | -27% | x | x
-1.8% | O=C(Cc1cccc(F)c1)N1CCOCC1 | -6% | x | x
4.2% | C=COCCNC(=O)C(=O)NC(C)C | 3% | 1% | 5
-2.9% | O=C(NC1CCc2ccccc21)c1cc(COc2ccc(F)cc2F)on1 (stereo unspecified) | -7% | -1% | -2
-1.5% | CC(C)c1ccc(CNc2cc(N3CCCC3)ccc2[N+](=O)[O-])cc1 | -21% | -11% | 1
0.6% | O=C1/C(=C\c2ccncc2)SC(=S)N1C1CCCCC1 | -11% | -4% | 8
-0.7% | CCC(=O)Nc1cccc(Oc2nc(C)cc(C)c2C#N)c1 | -24% | -8% | -3
-7.2% | CCOc1ccc(-n2c(SCC(=O)Nc3cc(C)on3)nc3c([nH]c4ccccc43)c2=O)cc1 | -3% | 0%&-10% | 0
-0.3% | COc1ccc([N+](=O)[O-])cc1NC(=O)C(C)N1CCN(C(=O)c2ccco2)CC1 (stereo unspecified) | 0% | -1% | -4
0.0% | O=C(NN1C(=O)/C(=C/c2cccs2)SC1=S)c1ccncc1 | -11% | 3% | -7
3.1% | Cc1ccc(CN2CCSCC2)c(C)c1 | -1% | 6% | 10
-0.9% | COc1ccc(-c2csc(NC(=O)c3ccc(OCC(=O)N4CCOCC4)c(OC)c3)n2)cc1OC | -7% | u | -12
-3.8% | CC(=O)N1CCc2c(sc(NC(=O)C3CCCN3S(=O)(=O)c3cccs3)c2C#N)C1 (stereo unspecified) | -5% | x | x
-0.3% | CC(C)C[C@H](NC(=O)NC1CCCc2ccccc21)C(=O)O (stereo partly specified) | 0% | u | -22
5.3% | Cc1cc(O)ccc1NC(=O)CCN1C(=O)c2ccc([N+](=O)[O-])cc2C1=O | 8% | -2% | 0
-5.7% | O=C(O)c1cccnc1SC1CC(=O)N(c2cccc(C(F)(F)F)c2)C1=O (stereo unspecified) | -12% | -2% | 8
0.2% | NS(=O)(=O)c1ccc(Sc2ccc3c(c2)CCC3)nc1 | -4% | -3% | x
4.7% | CN(Cc1ccc(C(C)(C)C)cc1)C(=O)c1ccc2c(c1)OCO2 | 21% | x | x
-4.7% | CN(C)c1ccnc2sc3c(NCC(O)CO)ncnc3c12 (stereo unspecified) | -10% | -11% | -5
4.1% | CCOC(=O)C1CCN(S(=O)(=O)c2ccc3c(c2)CC(=O)N3C)CC1 | 6% | 3% | x
u | N#C/C(=C\c1ccc(Br)s1)C(=O)N1CCN(c2ccccc2)CC1 | 18% | 2% | -3
2.1% | CC(c1ccccc1)N1C(=O)C2C3CCC(C3)C2C1=O (stereo unspecified) | 0% | 1% | 0
u | COc1cc2c(cc1OC)C(c1ccc(-c3ccc(Cl)cc3Cl)o1)=NCC2 | -14% | 26% | 2
-1.8% | CC(C)NC(=O)Cn1c(=O)n(CC(=O)N2CCCCC2)c(=O)c2sccc21 | 25% | -1% | x
-1.3% | C=C1CCC2[C@](C)(CO)[C@H](O)CC[C@@]2(C)[C@@H]1/C=C/C1=CCOC1=O (stereo partly specified) | 0% | x | x
0.6% | COc1cccc(COc2ccc3ccc(=O)oc3c2)c1 | 6% | -75% | x
1.2% | COc1ccc(-c2nnc(SCC(=O)N3CCCC(C)C3)o2)c(OC)c1 (stereo unspecified) | -21% | -13% | -11
-3.0% | O=C(c1ccccc1)c1cc2c(cc1[N+](=O)[O-])OCCO2 | 1% | -16% | 4
6.1% | CSc1cccc(NC(=O)Nc2ccccc2C(N)=O)c1 | 66% | -8% | 9
-1.0% | CCC(c1nnnn1CCc1ccccc1)N(Cc1ccco1)Cc1cc2cc(C)cc(C)c2[nH]c1=O (stereo unspecified) | 1% | 0% | -9
-3.6% | O=C(O)c1nc(NCCc2ccccc2)ncc1Cl | -11% | 0% | x
3.7% | CCn1c(=O)cc(OCC(=O)Nc2cccnc2)c2ccccc21 | 2% | 0% | -3
0.7% | CC(C)c1ccc(C2CC(=O)N3CN(Cc4ccco4)CSC3=C2C#N)cc1 (stereo unspecified) | -23% | -2% | 2
2.2% | Brc1cnc(N2CCOCC2)nc1N1CCCCC1 | -8% | -13% | -5
2.4% | O=C(CSc1nnc(-c2ccncc2)n1CCc1ccccc1)NCc1ccccc1 | -7% | 3% | -3
0.3% | O=C(Nc1ccc(N2CCN(Cc3ccccc3F)CC2)cc1)c1ccccc1[N+](=O)[O-] | -18% | -2% | -8

An excerpt; rates above refer to the full screens.
